Mtb H37Rv – M. tuberculosis H37Rv growth inhibitors, H37Rv strain (AID 1626) | M. tuberculosis H37Rv growth inhibition; higher % means a stronger effect | inhibition, % at 10 µM; hits with a dose series show IC50 in µM | 220,000 compounds, 0.95% hits;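 active means confirmed in a dose series; inconclusive means inhibition above 80% but not taken into the dose series; inactive means below 80% or under 30% at every dose of the series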;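 further: bacteria incubated seven days before Alamar blue readout; 0% = bacteria only wells and 100% = bacteria with antibiotic wells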
Arbovirus inh – blocks arbovirus infection. inhibition, % at 10 µM. arbovirus infection cell-based antiviral screen. 200,000 compounds, 0.37% hits;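 active means inhibition from about 30%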;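 further: bluetongue infection of BSR cells; cell survival read as ATP light after 72 h; 0% = infected wells without compound and 100% = uninfected wells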
YopH PTP inh – YopH (Yersinia) phosphatase inhibition; AID 898; 140,000 compounds, 0.16% hits; fluorescence Ex485/Em525; inhibition, %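 (about 10 µM by stock and volumes)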;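 active means inhibition of 50% or more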;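 further: controls were vehicle for no effect and minimum signal wells for full effect; inactives centre near -20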
Mtb betalactam – beta-lactam sensitization of Mtb H37Rv; M. tuberculosis H37Rv growth with meropenem, percent inhibition; hits of this screen are not shown here; inhibition, % at 25 µM; 330,000 compounds, 0.27% hits;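 active means about 74% or more and at least 40 points above the plate without the antibiotic, then above 30% in a dose series; inconclusive means first-round hits that could not be retested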;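 further: growth measured after seven days incubation then overnight dye step; 0% = bacteria only wells and 100% = bacteria with antibiotic; twin plates without the antibiotic show which effects depend on it; some results filed as inactive read as strong as hits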
RecA intein inh – Mtb RecA intein splicing inhibition; 290,000 compounds, 0.75% hits; AID 2221; cell-free RecA intein splicing, fluorescence; inhibition, %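 (about 9 µM by stock and volumes)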; in the data active means inhibition above about 30%; inconclusive means no clear call, values can overlap the other calls;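 further: 0% = vehicle wells and 100% = reference inhibitor control wells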
Target sequence (P9WHJ3 whole entry, looked up): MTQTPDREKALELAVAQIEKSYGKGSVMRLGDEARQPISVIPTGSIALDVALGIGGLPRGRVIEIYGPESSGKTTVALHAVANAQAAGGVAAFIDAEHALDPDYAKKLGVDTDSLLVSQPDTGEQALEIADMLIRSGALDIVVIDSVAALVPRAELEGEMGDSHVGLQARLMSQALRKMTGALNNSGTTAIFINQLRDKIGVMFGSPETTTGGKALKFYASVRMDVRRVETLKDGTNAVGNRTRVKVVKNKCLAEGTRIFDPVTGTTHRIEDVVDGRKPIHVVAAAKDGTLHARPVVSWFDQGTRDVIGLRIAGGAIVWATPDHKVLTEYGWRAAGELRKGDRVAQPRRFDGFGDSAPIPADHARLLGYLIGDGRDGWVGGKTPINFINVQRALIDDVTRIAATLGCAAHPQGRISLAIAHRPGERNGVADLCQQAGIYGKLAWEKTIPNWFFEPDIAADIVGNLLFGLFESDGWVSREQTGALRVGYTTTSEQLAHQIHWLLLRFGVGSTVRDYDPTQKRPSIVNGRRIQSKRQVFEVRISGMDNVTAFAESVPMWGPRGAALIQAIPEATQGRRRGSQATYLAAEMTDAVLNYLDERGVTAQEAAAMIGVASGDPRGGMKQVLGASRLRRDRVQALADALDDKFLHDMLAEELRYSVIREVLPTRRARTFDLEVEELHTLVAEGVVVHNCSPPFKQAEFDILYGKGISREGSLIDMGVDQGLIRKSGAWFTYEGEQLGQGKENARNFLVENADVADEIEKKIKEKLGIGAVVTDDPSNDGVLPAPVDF
Arbovirus inh repeat – recorded beside Arbovirus inh, whose call it bears; inhibition, %; measured here: 10K subset replicate screen; many hits read low in the repeat;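 first of two repeat runs on a subset; 0% = infected and 100% = uninfected wells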
* = called active by the depositor; ? = inconclusive; / = not tested or not shown; & = joins results of further samples. An excerpt; count on the stated rates, not on these rows.

Start of the listing, in advance, 16 compounds:
SMILES	Mtb H37Rv	Arbovirus inh	YopH PTP inh	Mtb betalactam	RecA intein inh	others
C=CCn1c(SC)nnc1C1COc2ccccc2O1 (centres undefined)	4.2%	-1.1	/	-1.2	2.7
O=C(NC1CCN(C(=S)NCc2ccco2)CC1)c1cccc(F)c1	0.8%	2.9	/	7.3	1.1
COc1ccc(NC(=O)CN2C(=O)NC(C)(c3ccccc3)C2=O)cc1Cl (centres undefined)	/	/	/	3.1	-0.2
Cn1nnnc1SCC(=O)NCCCc1ccccc1	-2.5%	-1.3	-36.7	-1.0	-0.8
O=S1(=O)[C@H]2C[C@@H]3C=C[C@@]2(CN1Cc1cccc(Cl)c1)O3	/	/	/	3.4	-1.9
CC(=O)Nc1ccc(Nc2nc(C)cc(C)n2)cc1	/	/	/	2.2	1.0
COc1ccc(S(=O)(=O)Nc2ccc(S(=O)(=O)Nc3ccc(F)cc3)cc2)cc1C	2.8%	-21.0	-21.2	5.2	3.3
COc1ccccc1NC(=O)CSC1=NCCN1	-6.9%	2.6	-31.5	-4.2	/
CCN(CC)c1ncnc2sc3c(c12)CCC3	10.2%	7.5	-2.0	31.9	1.8
O=C(Oc1coc(CSc2nnc(NC(=O)C3CC3)s2)cc1=O)c1c(F)cccc1F	2.4%	-19.2	/	-1.2	-2.9
Nc1cccn2c(-c3ccc(Cl)c(Cl)c3)cnc12	-2.1%	-3.2	/	9.8	12.1
CC(C)(C)C(=O)/C(=C/c1ccncc1)n1cncn1	8.39µM*	-40.7	/	99.7	1.6
COC(=O)c1ccc2nc(C3CCCCC3)c3c(c2c1)CCC3	8.7%	/	/	3.5	3.8
COc1ccc(/C=C/C(=O)N2c3ccccc3Sc3ccc(C(F)(F)F)cc32)cc1	29.0%	17.5	-29.9	6.9	1.9
CC(NC(=O)CSc1nc2c(c(C(F)(F)F)n1)CCc1ccccc1-2)c1ccccc1 (centres undefined)	4.1%	4.7	-14.3	-15.5	/
O=C(Cc1cccs1)Nc1ccc(S(=O)(=O)Nc2ncccn2)cc1	-10.6%	2.4	-35.6	-1.6	/

The listing, from the first entry:
SMILES	Mtb H37Rv	Arbovirus inh	YopH PTP inh	Mtb betalactam	RecA intein inh	others
C=CCn1c(SC)nnc1C1COc2ccccc2O1 (centres undefined)	4.2%	-1.1	/	-1.2	2.7
O=C(NC1CCN(C(=S)NCc2ccco2)CC1)c1cccc(F)c1	0.8%	2.9	/	7.3	1.1
COc1ccc(NC(=O)CN2C(=O)NC(C)(c3ccccc3)C2=O)cc1Cl (centres undefined)	/	/	/	3.1	-0.2
Cn1nnnc1SCC(=O)NCCCc1ccccc1	-2.5%	-1.3	-36.7	-1.0	-0.8
O=S1(=O)[C@H]2C[C@@H]3C=C[C@@]2(CN1Cc1cccc(Cl)c1)O3	/	/	/	3.4	-1.9
CC(=O)Nc1ccc(Nc2nc(C)cc(C)n2)cc1	/	/	/	2.2	1.0
COc1ccc(S(=O)(=O)Nc2ccc(S(=O)(=O)Nc3ccc(F)cc3)cc2)cc1C	2.8%	-21.0	-21.2	5.2	3.3
COc1ccccc1NC(=O)CSC1=NCCN1	-6.9%	2.6	-31.5	-4.2	/
CCN(CC)c1ncnc2sc3c(c12)CCC3	10.2%	7.5	-2.0	31.9	1.8
O=C(Oc1coc(CSc2nnc(NC(=O)C3CC3)s2)cc1=O)c1c(F)cccc1F	2.4%	-19.2	/	-1.2	-2.9
Nc1cccn2c(-c3ccc(Cl)c(Cl)c3)cnc12	-2.1%	-3.2	/	9.8	12.1
CC(C)(C)C(=O)/C(=C/c1ccncc1)n1cncn1	8.39µM*	-40.7	/	99.7	1.6
COC(=O)c1ccc2nc(C3CCCCC3)c3c(c2c1)CCC3	8.7%	/	/	3.5	3.8
COc1ccc(/C=C/C(=O)N2c3ccccc3Sc3ccc(C(F)(F)F)cc32)cc1	29.0%	17.5	-29.9	6.9	1.9
CC(NC(=O)CSc1nc2c(c(C(F)(F)F)n1)CCc1ccccc1-2)c1ccccc1 (centres undefined)	4.1%	4.7	-14.3	-15.5	/

Sorted by count of non-hydrogen atoms (ascending): part of the list above.
SMILES	Mtb H37Rv	Arbovirus inh	YopH PTP inh	Mtb betalactam	RecA intein inh	others
CCN(CC)c1ncnc2sc3c(c12)CCC3	10.2%	7.5	-2.0	31.9	1.8
O=S1(=O)[C@H]2C[C@@H]3C=C[C@@]2(CN1Cc1cccc(Cl)c1)O3	/	/	/	3.4	-1.9
O=C(NC1CCN(C(=S)NCc2ccco2)CC1)c1cccc(F)c1	0.8%	2.9	/	7.3	1.1

Carrying on:
SMILES	Mtb H37Rv	Arbovirus inh	YopH PTP inh	Mtb betalactam	RecA intein inh	others
O=C(Cc1cccs1)Nc1ccc(S(=O)(=O)Nc2ncccn2)cc1	-10.6%	2.4	-35.6	-1.6	/
COc1ccc(Cl)cc1C(=O)N/N=C/c1ccc(N2CCOCC2)cc1	5.7%	-2.0	/	-2.5	/
O=C(Cc1ccc(-n2c(=O)[nH]c3ccsc3c2=O)cc1)N1CCN(c2ccc(Cl)cc2)CC1	3.6%	9.8	-23.8	20.0	0.1
O=C(Nc1nccs1)C(NS(=O)(=O)c1ccc(Br)s1)c1ccccc1 (centres undefined)	5.7%	11.8	-32.0	-10.3	4.0
COc1cc2cc(CN(Cc3cccnc3)C(=O)Nc3ccccc3F)c(=O)[nH]c2cc1OC	-4.7%	5.3	/	4.0	-0.3
Cc1cc(NS(=O)(=O)c2ccc(NC(=S)NC(=O)c3ccc(C(C)(C)C)cc3)cc2)no1	78.5%	22.7	-38.2	85.3	-0.3
COc1ccc(C(CC(=O)O)NC(=O)C(c2ccccc2)c2ccccc2)cc1 (centres undefined)	/	/	/	2.3	-1.0
C=CCn1c(Cc2cccs2)nnc1SCC(=O)Nc1ccc(OC)cc1	-0.4%	-1.9	-46.0	6.0	0.7
CCOC(=O)c1cnc2ccc(Br)cc2c1NCCCN1CCOCC1	/	/	/	-3.1	0.3
CCOCC(=O)Nc1ccc(OCc2ccccc2)cc1	29.5µM*	-13.0	/	-6.7	0.9
CC(C)OC(=O)CNc1n[nH]c(=S)[nH]c1=O	-3.7%	7.3	/	/	-0.9
COc1ccc(S(=O)(=O)N2CCC(CN3C(=O)c4cccc5cccc(c45)C3=O)CC2)cc1	8.4%	-2.6	-23.2	-9.9	0.5
CCOc1ccc(S(=O)(=O)N(C)c2ccc(OCC(=O)NCCc3ccc(OC)cc3)cc2)cc1	-3.2%	/	/	6.3	-9.0
Cc1ccc(-c2csc(/C(C#N)=C/Nc3ccccc3SC(F)(F)F)n2)cc1	2.0%	-1.0	-17.3	-8.0	-4.9
CCCn1c(SCC(=O)NC2CCCC2)nnc1-c1cccnc1	/	/	/	3.7	-2.0
Cc1ccc(N2CC(C(=O)NCCCn3ccnc3)CC2=O)cc1 (centres undefined)	-8.3%	16.1	-44.1	-4.1	-1.6
CC(C(=O)NCCc1ccc(S(N)(=O)=O)cc1)N1C(=O)CC(C)(C)Sc2ccccc21 (centres undefined)	/	/	/	0.3	-1.3
CCn1c(SCC(=O)NC2CC2)nnc1-c1ccccn1	/	/	/	1.5	0.6
CO/N=C/c1c(-c2ccccc2)nn(C)c1Cl	-4.8%	-6.3	/	0.8	-1.0
Cc1ccccc1OCCC(=O)NCCc1ccc(S(N)(=O)=O)cc1	4.5%	-2.0	-34.5	-2.3	0.3
O=C(NNC(=S)Nc1ccc(Cl)cc1)c1ccccc1OC(F)F	7.0%	-3.9	-29.9	-2.1	3.0
O=C(Nc1cccc(-n2cnnn2)c1)c1ccc(OC(F)(F)F)cc1	/	/	/	6.2	-0.4
COc1ccc(N2C(=O)CCC(C(=O)N3CCCCC3)C2c2ccc(F)cc2)cc1 (centres undefined)	-4.8%	-0.7	-47.0	-2.2	-8.1
CCOc1ccccc1N1CCN(CC(=O)Nc2cc(C)on2)CC1	4.3%	0.2	/	5.7	-0.9
C=CCn1c(=N)n(CC(=O)OC)c2ccccc21	5.3%	14.1	-15.8	-2.8	-2.0
COc1ccccc1CNC(=O)Cn1nnc(-c2ccncc2)n1	8.9%	3.0	-23.9	-1.9	3.0
CN1CCN(C(=O)Nc2ccccc2)CC1	5.0%	4.5	/	-12.6	-0.6
CCc1cccc(CC)c1NC(=S)N1CCn2cccc2C1c1ccncc1 (centres undefined)	4.3%	-4.3	/	-3.2	-3.0
O=S1(=O)c2ccccc2N=NN1Cc1ccc(Cl)cc1	12.5%	-1.1	-15.0	-4.5	7.1
CCCn1cc(S(=O)(=O)c2ccc(C)cc2)c(=O)c2cc(OCC)ccc21	/	/	/	?	1.7
CC(C)c1nnc(NC(=O)CCC(=O)N2CCN(Cc3ccc(F)cc3)CC2)s1	/	/	/	0.2	-0.6
OCCc1ccccc1	-0.1%	/	/	-5.6	-2.5
CCc1cc(=O)oc2cc(C)cc(OC(C)C(=O)NCc3cccnc3)c12 (centres undefined)	/	/	/	2.2	-1.1
CC(=O)NCCNc1nc2c(-c3cccc(C(F)(F)F)c3)nnn2c2ccccc12	/	/	/	-5.3	-29.2
CC1=C(C(=O)OC2CCCCC2)C(c2ccccc2F)NC(=O)N1 (centres undefined)	/	/	/	9.4	-1.9
CCN1C(=O)c2ccc(C(=O)Nc3nccs3)cc2C1=O	0.8%	7.8	-19.9	-7.3	1.6
CC(C)C[C@@H](CC#N)N1CCN(CCc2ccccc2)CCC1=O	/	/	/	-5.6	1.3
CC1CCC(C(C)C)C(OCC(O)CNC(C)c2ccccc2)C1 (centres undefined)	4.1%	-37.7	/	13.3	3.7
O=C(NCc1cccc(Cl)c1)NCc1cccc(Cl)c1	0.5%	-7.9	-21.8	-1.1	0.9
CC(C)(C)n1ncc(Oc2ccccc2[N+](=O)[O-])c(Cl)c1=O	4.1%	0.9	-16.4	-3.0	5.2
COc1ccccc1CNC(=O)COC(=O)CSc1ccc(Cl)cc1	/	/	/	-3.0	2.1
COc1ccc(C(=O)NCc2cccnc2)cc1Br	-5.1%	-5.0	-22.1	-8.4	1.1
CCC(O)c1cc2c(cc1NC(=O)c1ccc(C)cc1)OCCO2 (centres undefined)	-1.6%	-0.8	-7.3	21.9	-0.9
O=C(CN(C(=O)CNC(=O)c1ccco1)c1ccc2c(c1)OCO2)NC1CCCCC1	-0.5%	0.9	-35.7	-3.3	-0.1
O=C(O)CSc1cccc2cccc(C(=O)O)c12	3.0%	-3.9	11.3	2.0	-0.7	Arbovirus inh repeat=0.3
O=C(CNC(=O)c1ccccc1)N/N=C/c1ccccc1Cl	-5.7%	9.4	/	-4.1	2.4
CC1(C)Cc2c(C#N)c(N3CCN(C(=O)c4ccccc4)CC3)nc(-c3ccco3)c2CS1	1.1%	8.1	-30.1	23.2	/
CCOC(=O)CN1C(=O)N[C@@H](c2cccc(C(F)(F)F)c2)C(C(C)=O)=C1C	-3.0%	/	/	-9.4	34.9*
CC1=CCC(C(=O)O)(C(=O)N/N=C/c2cccs2)C(c2ccc(Cl)cc2)C1 (centres undefined)	2.8%	-6.2	-25.3	0.2	4.2
O=C(NCCc1ccccc1)c1cc2sccc2n1Cc1ccccc1	-9.2%	-15.1	10.3	8.6	0.7
O=S(=O)(Nc1ccccc1)c1ccc(-c2cnc(C3CC3)o2)cc1	/	/	/	-3.2	5.4
O=C(Nc1nc(-c2ccccn2)cs1)C12CC3CC(CC(O)(C3)C1)C2	3.6µM*	5.5	/	85.0	-0.9
O=C1CN=C(c2cccc(Br)c2)c2cc(Br)ccc2N1	/	/	/	-6.0	10.8
O=C(O)c1cccc2nc3ccccc3nc12	5.2%&10.9%	-10.4	/	38.5	-1.4	Arbovirus inh repeat=2.0
CC(=O)Nc1ccc(NC(=O)CNC(=O)c2sc3ccccc3c2Cl)cc1	/	/	/	-4.0	-1.1
Cc1nc(SCC(=O)Nc2cc(C)on2)c2c(C)c(C)sc2n1	-4.3%	6.4	-36.4	-0.8	-0.1
O=C(/C=C/c1cccc(F)c1)NNC(=O)c1ccncc1	/	/	/	56.5	-6.7
FC(F)(F)c1cccc(NC(=S)Nc2cccc(Cl)c2)c1	?	-31.0	-7.9	92.2	9.1
Cc1ccccc1OCC(=O)NCC(c1ccco1)N1CCCCC1 (centres undefined)	/	/	/	-6.8	0.8
COc1cc2c(cc1OC)CN(CCOc1ccc(Br)cc1)CC2	/	/	/	-1.5	0.7
COc1ccc(Cl)cc1S(=O)(=O)n1c([N+](=O)[O-])cnc1C	/	/	/	2.9	1.1
CC1CCCC(NC(=O)c2nn(C)c3c2CS(=O)(=O)c2ccccc2-3)C1C (centres undefined)	/	/	/	3.4	0.4
O=C(Nc1ccc(S(=O)(=O)NC2=NCCCCC2)cc1)c1ccc(=O)[nH]c1	-0.1%	-1.4	/	1.9	-0.7

Screening results: PubChem, several laboratories
